High-throughput results as filed in PubChem.
ClpP mod = qHTS Assay for Activators of ClpP. ATP-dependent Clp protease proteolytic subunit (Bacillus subtilis (strain 168)), P80244. purified B. subtilis ClpP, FRET peptide cleavage, 20 min. Potency, µM (titrated, usually from 57.5 µM), for inactives: at the top dose activity change, negative = active. hit rate 1.9% among 340,000; active = well fitted falling curve with a large enough effect; inconclusive = small, poorly fitted or top-dose-only effect; inactive = no such curve, though single readings can be large or run the other way; also: potency is read from the fitted curve at half-maximal effect; the source files actives as falling curves though it sought activators and does not explain the sign; nearly all actives have a fitted effect of over 65% in size; many hits overshoot -100%
Target sequence (P80244 whole entry, looked up): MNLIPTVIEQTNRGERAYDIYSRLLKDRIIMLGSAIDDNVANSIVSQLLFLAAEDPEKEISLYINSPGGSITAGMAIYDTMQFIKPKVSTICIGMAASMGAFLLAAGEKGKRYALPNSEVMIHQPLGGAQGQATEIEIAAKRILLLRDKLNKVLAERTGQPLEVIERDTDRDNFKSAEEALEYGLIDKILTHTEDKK
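FRET quenching reversal measured ClpP activation: 10 microg/mL B. subtilis ClpP at pH 8 with the FRET-FV decapeptide, read at 430 nm after 320 nm excitation. The 20-min minus 0-min signal was scaled between DMSO/no-enzyme wells and ADEP (5.8 microM final).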
Sfp PPTase inh = qHTS Assay for Inhibitors of Bacillus subtilis Sfp phosphopantetheinyl transferase (PPTase); Biochemical Sfp PPTase activity, qHTS; Potency, µM, inactives show max response, negative = inhibition, most hits filed as inhibitors; hit rate 3.5% among 310,000; AID 1490, 2009; active = well fitted inhibition curve with a large enough effect; inconclusive = small, poorly fitted or top-dose-only effect, or another doubt; inactive = no such curve, though single readings can be large or run the other way;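 also: the enzyme is Sfp with the accession as filed and its product quenches rhodamine fluorescence; potency is read from the fitted curve at half-maximal effect; 0% = enzyme reaction without inhibitor and -100% = no enzyme wells; top concentration of the series not given in the record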
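Reaction rates are the 30-min fluorescence difference (ex 525, em 598 nm) in wells containing 15 nM Sfp, 5 uM rhodamine-CoA and 12.5 uM BHQ-2-YbbR at pH 7.6 with 10 mM MgCl2.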
TRPV1 potentiator = HTS Assay for Compounds that Act as Potentiators of the Vanilloid Receptor 1. Transient receptor potential cation channel subfamily V member 1 (Homo sapiens), Q8NER1. TRPV1-expressing cells, Fluo-8 calcium influx, capsaicin EC20 potentiation; host cell line not named in the record; control for the full effect not named in the record. potentiation, % at 8.33 µM. hit rate 0.02% among 320,000. AID 540277, 2011; active means potentiation above 80%; inconclusive means 30% to 80%; inactive means below 30%; also: 0% is about no effect
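TRPV1-expressing cells were cultured overnight at 35.5C and loaded with Fluo-8 calcium dye for 40 to 90 min at room temperature. After a 10 s baseline, compound was added and calcium influx was read kinetically for 3 min (ex 480/em 520 nm).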
TRPML1 agonist = qHTS for Agonists of the Human Mucolipin Transient Receptor Potential 1 (TRPML1). Mucolipin-1 (Homo sapiens), Q9GZU1. TRPML1-expressing cells, Ca2+ dye fluorescence, FDSS; host cell line not named in the record; reference of the full effect not given here. activation, % (no concentration beside the values). hit rate 0.12% among 410,000. AID 624414, 2012; in the data active = activation above about 50%; inconclusive = about 30% to 50%; inactive = below about 30%; also: 0% is about no effect; the text of the record puts the active cut at 80%
Target sequence (Q9GZU1 whole entry, looked up): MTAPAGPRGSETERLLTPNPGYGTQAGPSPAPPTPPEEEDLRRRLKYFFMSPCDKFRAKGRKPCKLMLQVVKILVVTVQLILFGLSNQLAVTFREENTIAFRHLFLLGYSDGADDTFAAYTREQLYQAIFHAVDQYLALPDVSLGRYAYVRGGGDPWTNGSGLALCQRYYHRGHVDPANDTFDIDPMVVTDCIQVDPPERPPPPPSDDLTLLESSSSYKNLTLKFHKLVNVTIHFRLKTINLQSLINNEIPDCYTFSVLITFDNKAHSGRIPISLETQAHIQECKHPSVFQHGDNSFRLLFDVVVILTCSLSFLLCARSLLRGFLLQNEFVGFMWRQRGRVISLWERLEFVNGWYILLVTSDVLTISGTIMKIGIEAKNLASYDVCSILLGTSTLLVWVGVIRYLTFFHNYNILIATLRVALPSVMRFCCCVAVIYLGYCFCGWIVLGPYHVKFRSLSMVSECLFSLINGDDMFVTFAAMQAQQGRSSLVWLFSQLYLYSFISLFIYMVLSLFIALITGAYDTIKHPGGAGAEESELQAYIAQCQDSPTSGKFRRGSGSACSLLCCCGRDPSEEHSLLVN
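Calcium fluorescence on an FDSS kinetic reader gave the read-out. Tet-induced TRPML1-DL cells were plated overnight, dye-loaded (Ca8 with quencher, 45-90 min, room temperature, dark), then read 110 s after compound addition, and again 110 s after 4uM final 54-4 (EC80).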
TRPML1 blocker = qHTS for Inhibitors of the Human Mucolipin Transient Receptor Potential 1 (TRPML1). Mucolipin-1 (Homo sapiens), Q9GZU1. TRPML1-inducible cells, Ca2+ dye fluorescence, FDSS; hits give low values; inhibition of EC80 agonist-evoked calcium signal. activity change, negative = inhibition, % (test concentration not listed). hit rate 0.02% among 390,000; in the data active means activity change below about -50%; inconclusive means about -30% to -50%; inactive means above about -30%;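 also: stimulus is agonist 54-4 at its EC80 concentration; % is scaled to controls: 0 for no effect and ±100 for the full control effect; compound concentration not given in the record; the text of the record puts the active cut at -80%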
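Tet-induced TRPML1-DL cells loaded with Ca8 no-wash calcium dye were read kinetically on FDSS. Compound addition was followed by EC80 agonist 54-4 (4 uM final); inhibition was read over 110 s.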
Menin-MLL FL inh = qHTS Assay for Inhibitors Targeting the Menin-MLL Interaction in MLL Related Leukemias: Competition With Fluorescein Labeled MLL-derived Peptide; Fluorescence polarization, fluorescein-MLL peptide displacement from menin; FP activity change, % at 61.4 µM; 290,000 tested, under 10 active; AID 1766, 2009; inconclusive = falling polarisation curve, or a change in total fluorescence; inactive = total fluorescence flat and polarisation flat or rising; no compound was filed as active; the % refers to the polarisation; negative = inhibition;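 also: % of control where 0% means no effect; inhibitors lower the polarisation; unlabelled MLL peptide was the positive control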
PINK1 expr mod = A Quantitative High throughput Screen to Identify Chemical Modulators of PINK1 Expression; PINK1 immunofluorescence, high-content cytometry, 24 h; Potency, µM (doses to about 76.6 µM), for the others: top-dose activation (PINK1 increase), actives largely listed as activators; hit rate 0.2% among 410,000; AID 624263, 2012; active = well fitted activation curve with a large enough effect; inconclusive = small, poorly fitted or top-dose-only effect; inactive = flat fitted curve, though single readings scatter; cell line not stated here;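 also: potency is read from the fitted curve at half-maximal effect; % of control where 0% means no effect; nearly all actives have a fitted effect of over 65% in size; a mitochondrial uncoupler was the plate control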
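Cells are seeded, rested 12 hours, then given compound at five concentrations or DMSO for 24 hours. After fixation, blocking and antibody staining, PINK1 amount and mitochondrial localization are scored; CCCP serves as control.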
* marks the source's active call; other numbers are inactive results; ? = inconclusive; / = no result given; & = joins results of further samples; [ ] = remark or other dose. Rows were taken by chance; any-hit rate near 4.4%.

Values run as follows: ClpP mod	Sfp PPTase inh	TRPV1 potentiator	TRPML1 agonist	TRPML1 blocker	Menin-MLL FL inh	PINK1 expr mod
> O=C1CCC(C(=O)OCc2cc(=O)oc3ccc4ccccc4c23)=NN1
→ 3.4%	7%	12	/	/	-0.9	4.6%
> Cc1csc(N2CCCC2c2nc3cc(C(F)(F)F)ccc3n2CCOCCO)n1 (stereo not given)
→ 4.2%	/	/	0.1	-17	/	2.0%
> O=S(=O)(c1cccc(-c2nn3c(-c4ccncc4)nnc3s2)c1)N1CCOCC1
→ /	4%	4	/	/	-1.9	/
> CCOC(=O)c1ccc(NS(=O)(=O)c2ccc(SC)cc2)cc1
→ -0.1%	7%	?	3.3	-2	1.2	4.7%[38.3 µM]
> O=C(NCc1ccccc1F)C(=O)NCC1CCCN1S(=O)(=O)c1ccccc1 (stereo not given)
→ /	/	-2	-0.5	20	/	1.2%
> COc1ccc(NC2c3ccccc3C(=O)N2c2cccnc2)cc1Cl (stereo not given)
→ 0.6%	18%	1	-0.9	-3	2.0	0.0%
> COc1ccc(-c2ccc(-c3nnn(CC(C)=O)n3)cc2)cc1
→ -26%	4%	-1	-0.3	-10	0.1	3.0%
> Cc1ccc(NC(=O)CN2CCC(C(N)=O)CC2)cc1[N+](=O)[O-]
→ 1.6%	10%	8	-0.6	-13	-0.3	-0.7%
> CCOC(=O)C1=C[C@@H](c2ccccc2)N(S(=O)(=O)c2ccc(C)cc2)[C@H]1c1cccc(Cl)c1
→ -2.9%	/	/	-0.4	-14	/	1.5%
> CN1OC[C@@H]2CN(C(=O)CCc3ccccc3)[C@H](c3ccccc3Br)C[C@@H]21
→ 1.1%	/	/	-0.6	/	/	1.5%
> Cc1ccccc1NC(=O)C(C)Sc1nnc(CN2CCCC2)n1Cc1ccccc1 (stereo not given)
→ 0.6%	/	/	-0.2	12	/	3.8%
> O=C(NCc1ccc2c(c1)OCO2)c1nn2cccnc2c1Cl
→ 0.8%	10%	8	0.7	24	12	0.9%
> COc1ccc(/C=N/OCC(=O)N2CC3(C)CC2CC(C)(C)C3)cc1 (stereo not given)
→ 0.6%	8%	7	0.4	7	2.1	/
> NC1=NS(=O)(=O)NC1c1cccc(F)c1 (stereo not given)
→ /	11%	9	0.5	-26	0.3	3.1%
> CCc1ccc(/C=C2/C(=O)NC(=O)N2C(C)=O)cc1
→ -0.3%	2%	-18	1.6	5	-1.7	-2.5%
> Nc1nc2n(n1)C(c1ccccc1Cl)CC(c1ccc(F)cc1)N2 (stereo not given)
→ -24%	2%	/	4.5	-9	1.0	1.8%
> Cc1cc(=O)n2nc(N3CCCC(C(=O)NCc4ccco4)C3)sc2n1 (stereo not given)
→ -1.6%	15%	0	-0.3	15	4.3	-0.3%
> CN(c1ccc(C(=O)NCCC2=CCCCC2)cc1)S(C)(=O)=O
→ -1.3%	3%	-37	0.6	12	-0.5	-0.3%
> COc1ccc(C(=O)c2[nH]c(N)c(C(=O)NCCc3c[nH]c4ccccc34)c2-c2ccc(Cl)c(F)c2)cc1
→ -4.1%	/	/	-0.6	/	/	0.5%
> COc1cccc(NC(=O)Cn2nnc(-c3nc(-c4ccccc4)no3)c2N)c1
→ -19%	/	/	1.0	-15	/	5.3%
> CS(=O)(=O)N(Cc1ccccc1)c1ccc(C(=O)Nc2ccc3c(c2)OCO3)cc1
→ 0.4%	11%	11	0.9	18	-2.0	-0.4%
> COCCCNC(=O)c1ccc2c(c1)CCN2S(C)(=O)=O
→ -1.2%	7%	-1	0.7	-10	-1.1	-4.3%[38.3 µM]
> COc1ccccc1NS(=O)(=O)c1cc(NC(=O)c2cc(F)c(F)c(F)c2F)ccc1N1CCOCC1
→ /	/	/	-0.2	29	/	5.6%
> Cc1ccc(C(=O)N2CC(C)OC(C)C2)cc1S(=O)(=O)N1CCCCC1 (stereo not given)
→ 1.6%	/	-10	-0.2	14	/	3.0%
> CCCc1cc(C(=O)Cc2ccc(F)cc2)c(O)cc1O
→ -2.4%	-16%	9	1.3	12	-0.8	?
> COc1ccccc1N1CCN(CCN(C(=O)c2ccc(F)cc2)c2ccccn2)CC1
→ 1.0%	/	1	-0.9	0	0.8	-0.5%
> Cn1c(=O)c2c(nc(Oc3ccccc3Br)n2C)n(C)c1=O
→ /	4%	28	-0.6	7	1.2	-2.2%
> COc1ccc(-n2nc(C(=O)NCC(=O)N3CCN(c4ccccc4OC)CC3)c3ccccc3c2=O)c(OC)c1
→ /	17%	?	-0.2	23	-0.3	4.0%
> COc1cccc(-n2c(C)nnc2SCC#N)c1
→ 1.0%	15%	-36	-0.3	4	2.5	-2.6%[38.3 µM]
> CC(C)OC(=O)c1ccc(NC(=O)c2cccc(-n3cnnn3)c2)cc1
→ -3.5%	/	-21	0.1	-1	/	-1.7%
> CCOc1ccc(-c2nnc(N3CCOCC3)c3ccccc23)cc1
→ -2.0%	9%	0	/	/	5.5	-0.7%
> CSc1cccc(NC(=O)CC(C)n2ccnc2)c1 (stereo not given)
→ /	-2%	19	-0.1	-15	-8.4	-0.6%
> N#Cc1nc(-c2ccc([N+](=O)[O-])cc2)oc1N1CCCCC1
→ /	20%	-9	2.4	1	12	0.9%
> CCOC(=O)C1CCCN(C(=O)c2cccc(C(F)(F)F)c2)CC1 (stereo not given)
→ -0.5%	/	/	-0.9	/	/	1.1%
> CC(=O)Nc1ccc(S(=O)(=O)NCC2CCC(C(=O)NCCC3=CCCCC3)CC2)cc1 (stereo not given)
→ 0.6%	4%	-3	0.1	-4	1.1	2.9%[38.3 µM]
> Cc1ccc(S(=O)(=O)CC(C)N2CCOCC2)c(S(=O)(=O)CC(C)N2CCOCC2)c1 (stereo not given)
→ -2.1%	-7%	-5	-0.5	6	0.8	-0.8%
> O=C(c1ccccc1)N1N=C(c2ccccc2)CC1c1ccccc1[N+](=O)[O-] (stereo not given)
→ 25µM*	-8%	-10	0.0	-1	-0.3	10%
> CN(C)C(=O)/C(=C\c1ccncc1)NC(=O)c1ccccc1
→ /	-5%	-11	-0.4	-10	0.3	3.7%
> CCN(CC)S(=O)(=O)c1cccc(C(=O)Nc2cccnc2)c1
→ 0.4%	-4%	6	0.8	3	-1.2	5.5%[38.3 µM]
> COc1ccc2c(c1)[C@]1(C)CCC(=O)C[C@H]1CC2
→ /	0%	/	/	/	3.6	-1.3%
> COc1cccc(NC(=O)Cn2c(=O)n(CCCC(=O)NCc3ccc4c(c3)OCO4)c(=O)c3ccccc32)c1
→ ?	/	/	-0.7	20	/	-0.7%
> O=C(CNC(=O)c1cccs1)c1ccc(Cl)cc1
→ /	11%	-22	-0.2	5	0.1	2.4%
> O=C(NC1CCCCC1)C(c1cccnc1)N(C(=O)c1csnn1)C1CCCC1 (stereo not given)
→ -1.9%	0%	-3	-0.9	10	-1.4	0.7%
> CC(C)(Oc1ccc(Cl)cc1)C(=O)O
→ 2.5%	12%&26%&17%&-10%&26%	-1	0.2	0	?	0.6%
> O=C1CCC(=O)N1CCSC(=S)N1CCOCC1
→ /	20%	11	1.8	-4	1.9	1.1%
> COCc1cc(=O)[nH]c2c1c(-c1ccccc1)nn2C
→ 4.0%	15%	-5	-0.7	6	3.7	-0.1%
> O=C(O)c1ccc(COc2ccccc2/C=C2/NC(=O)N(c3cccc(Cl)c3)C2=O)cc1
→ ?	-3%	?	0.2	-10	/	2.2%
> COc1ccccc1C(=O)NCC(=O)N/N=C/c1cc(Br)ccc1OCc1ccccc1
→ /	4%	7	0.2	23	1.0	0.2%
